Bioassay records as filed in PubChem BioAssay.
Ecoli rRNA inh: inhibits bacterial ribosomal RNA function over humanized ribosomes. E. coli WT GFP vs humanized-ribosome RFP mutants, fluorescence, 24 h; stronger effect = lower value; DMSO median 0, no signal -100. GFP signal change (wild-type ribosome), % (concentration not given with the values). 1.6% of 350,000 active;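 active = significant combined selectivity score with lowered wild-type GFP, culture density cut under 30%, mutant RFP and density less affected; inactive = any of these conditions unmet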; also: one replicate is shown; some compounds called inactive have numbers as strong as hits
Ecoli growth: blocks Escherichia coli growth | 0.21% of 330,000 active | OD600 absorbance (test concentration not listed) | OD600, 23 h; stronger effect = lower value;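 active = OD600 absorbance below the run mean of sample wells minus 3.6 SD, in any replicate, cut at about 0.56 in these data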;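 also: stock transfer was 300 nL into about 60 µL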
Bfl-1 A1 inh: inhibitors of the anti-apoptotic protein A1, read as caspase activation | 0.066% of 330,000 active | MEF A1-2A-BIM cells, Caspase-Glo 3/7 luminescence, 3 h; percent of clofoctol response, vehicle zero | caspase activation, % (concentration not given with the values);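 active = over half of replicate activation scores above 10%, or exactly half above 10 with the replicate mean above 10; inconclusive = replicate mean below 10 yet half the replicates above 10; inactive = over half of replicates below 10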;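 also: wells of about 30 µL received 50 nL stock; many hits fall short of the cut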
T cruzi repl: blocks replication of Trypanosoma cruzi; 1.4% of 300,000 active; T. cruzi beta-gal in NIH3T3, luminescence, 90 h; inhibition, % (concentration not given with the values);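 active = mean inhibition across valid replicates above about 55%, limit read from the data; inconclusive = mean below that limit but half or more replicates reach it; inactive = mean below it, under half of replicates reach it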;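 also: signal also drops with host cell toxicity which is not excluded here; 0% = plate median of DMSO wells and 100% = zero luminescence signal; higher percent means less beta-gal luminescence so fewer parasites; stock transfer was 50 nL into about 50 µL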
UCH37 DUB inh: blocks the human deubiquitinase UCH37 | Q9Y5K5 | purified proteasome/UCH37, Ub-AMC cleavage fluorescence | inhibition, % (concentration not given with the values) | 0.33% of 330,000 active | AID 588478;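 active = mean of two replicates above 20%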;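 also: 0% = compound-free wells with enzyme and 100% = wells lacking proteasome; stock transfer was 100 nL into about 20 µL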
Target sequence (Q9Y5K5 whole entry, looked up): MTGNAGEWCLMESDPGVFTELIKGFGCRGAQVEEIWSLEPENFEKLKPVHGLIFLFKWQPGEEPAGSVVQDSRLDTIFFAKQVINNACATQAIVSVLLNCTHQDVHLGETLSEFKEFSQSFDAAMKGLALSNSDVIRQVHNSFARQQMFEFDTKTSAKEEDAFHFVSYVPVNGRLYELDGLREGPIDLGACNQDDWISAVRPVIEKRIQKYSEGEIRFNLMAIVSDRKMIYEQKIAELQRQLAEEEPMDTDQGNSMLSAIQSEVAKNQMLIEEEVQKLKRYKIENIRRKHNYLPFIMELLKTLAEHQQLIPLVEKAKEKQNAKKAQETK
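Test system – human UCH37 enzyme supplied as purified proteasome complex · Incubation – 30 min preincubation with enzyme, 25 min cleavage at room temperature · Detection – AMC fluorescence from Ub-AMC cleavage, excitation 355 nm, emission 460 nm · Benchmarks – no-proteasome wells (full inhibition) and compound-free wells (no inhibition)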
Beta cell apopt: blocks beta cell apoptosis. INS-1E cytokine-induced death, ATP luminescence, 48 h; percent of positive-control rescue, neutral wells zero. 0.8% of 300,000 active. AID 435005. protection from apoptosis, % (no concentration beside the values);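 active = all replicates at 75% or more, or half of them and the mean; inconclusive = half reach 75% but not the mean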;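 also: 0% = cytokine-treated negative control wells and 100% = positive control rescue; higher means more ATP so stronger rescue from cytokine killing; wells of about 40 µL received 100 nL stock; the first replicate is given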
FGF22 binding: FGF22 (human) thermal shift binding; recombinant FGF22 thermal shift, SYPRO orange fluorescence; percent of sucrose octasulfate shift, DMSO zero; calls only at 9.99 µM; AID 651658; Q9HCT0; 1.5% of 340,000 active;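 active = melting point raised past a set limit in the mean and every replicate; inconclusive = no clear call; three in four hits are not shown here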
MLL AF4-AF9 inh: MLL-AF4/AF9 protein interaction inhibition; AlphaScreen, biotin-AF4 peptide binding to FLAG-AF9; inhibition, % at 10 µM; 0.47% of 350,000 active; AID 651704;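 active = every replicate reaching a set inhibition limit, whatever the replicate mean, cut at about 25% in these data; inconclusive = mean inhibition reaches that limit but some replicates miss it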;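 also: 0% = plate neutral control median and 100% = total signal loss; the record names both 10 and 1 µM as test concentration; the first replicate is given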
Target sequence (P42568 whole entry, looked up): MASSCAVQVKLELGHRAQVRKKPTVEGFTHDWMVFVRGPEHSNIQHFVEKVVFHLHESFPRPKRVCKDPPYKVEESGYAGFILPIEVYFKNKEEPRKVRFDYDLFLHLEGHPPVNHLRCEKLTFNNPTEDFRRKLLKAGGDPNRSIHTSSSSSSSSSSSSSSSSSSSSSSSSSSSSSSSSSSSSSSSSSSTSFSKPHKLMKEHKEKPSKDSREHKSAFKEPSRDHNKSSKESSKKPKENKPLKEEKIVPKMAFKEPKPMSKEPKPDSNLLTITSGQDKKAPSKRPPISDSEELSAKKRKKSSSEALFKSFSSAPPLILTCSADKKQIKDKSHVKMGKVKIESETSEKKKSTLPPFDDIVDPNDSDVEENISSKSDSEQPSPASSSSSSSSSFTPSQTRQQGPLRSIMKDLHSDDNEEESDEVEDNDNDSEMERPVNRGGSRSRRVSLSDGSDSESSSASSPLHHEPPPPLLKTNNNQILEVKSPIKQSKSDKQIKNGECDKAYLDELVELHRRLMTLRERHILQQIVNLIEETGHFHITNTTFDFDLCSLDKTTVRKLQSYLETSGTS
Ecoli rRNA inh OD600: further read-out of Ecoli rRNA inh, marked with its call; OD600 change, %; measured here: OD600 growth;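 optical density of the mix in the first replicate; 0 = DMSO median and -100 = no signal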
Ecoli rRNA inh RFP: further read-out of Ecoli rRNA inh, marked with its call; RFP signal change, %; measured here: RFP humanized mutant strains;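 first replicate; 0 = DMSO median and -100 = no signal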
Starred values were filed as active, the others as inactive; i = inactive; ? = inconclusive; · = no result given. Some of the compounds tested. The share of hits here may be higher or lower than overall.

No.	SMILES	Ecoli rRNA inh	Ecoli rRNA inh OD600	Ecoli rRNA inh RFP	Ecoli growth	Bfl-1 A1 inh	T cruzi repl	UCH37 DUB inh	Beta cell apopt	FGF22 binding	MLL AF4-AF9 inh
1	O=C(c1ccc(Br)o1)N1CCN(c2ccccn2)CC1	·	·	·	0.68	1.2	5	3.0	1	·	·
2	O=C(Nn1nnnc1Nc1ccccc1)C12CC3CC(CC(C3)C1)C2	·	·	·	0.73	-0.4	4	2.1	4	·	·
3	CCOC(=O)c1c(-c2ccc(C)o2)csc1NC(=S)NC(=O)c1ccc(F)cc1	·	·	·	0.73	-0.2	4	3.4	9	·	·
4	NC(=O)Nc1ccc(Oc2ncc(C(F)(F)F)cc2Cl)cc1	-11	-11	-1.7	0.69	1.0	-9	1.5	·	i	-4.0
5	CN(C(=O)COn1nnc2ccc(S(=O)(=O)N3CCOCC3)cc21)c1ccccc1	6	9	1.0	0.69	0.7	0	4.0	-7	i	-0.1
6	Cc1ccccc1OCCC(=O)N(CC(C)C)c1c(N)n(Cc2ccccc2)c(=O)[nH]c1=O	2	1	-1.1	0.66	-0.3	·	0.0	-4	i	-0.7
7	CCc1ccc(NC(=O)c2ccccc2Br)cc1	-15	-3	-5.4	0.64	-0.9	-7	4.0	-4	i	0.7
8	C=CCNC(=O)CCC(=O)NNc1nc2ccccc2c2nc(-c3ccccc3)nn12	14	18	-1.4	0.7	0.4	5	4.8	-1	i	-0.2
9	O=C(c1nc2ncccn2n1)N1CCN(c2ccc(F)cc2)CC1	·	·	·	0.76	0.6	0	0.5	-1	·	·
10	CC1CCCC(NC(=O)COc2ncnc3ccccc23)C1C (centres undefined)	-8	-2	-4.0	0.72	0.3	·	1.1	-2	i	-1.4
11	O=C(CCNC(=O)C1CCN(S(=O)(=O)c2ccccc2)CC1)NCc1ccc(Cl)cc1	5	9	-0.8	0.7	1.2	10	5.6	·	i	-4.7
12	CC(C)CC(=O)NC(=S)Nc1cc(C(F)(F)F)ccc1N1CCOCC1	-5	0	3.4	0.74	2.4	46	1.6	-2	i	-3.2
13	O=C(NCC1CCCO1)C1CCN(C2CCN(C(=O)CC3CCCC3)CC2)CC1 (centres undefined)	16	12	1.0	0.69	-0.1	-14	0.7	-2	i	-2.0
14	CC(C)C[C@H](NC(=O)N1CCn2c1nc1ccccc12)C(=O)N1CCCCC1	-3	-2	1.2	0.73	-0.7	12	6.3	-6	i	-0.7
15	Cc1ccc(-c2nnc(SCC(=O)Nc3sc(C)c(C)c3C#N)n2C)cc1	·	·	·	0.71	0.4	-2	·	2	·	·
16	COc1cccc(C(=O)Nc2cccc(-c3nc4ncccc4o3)c2C)c1	·	·	·	0.75	-0.1	1	0.9	1	·	·
17	CCN(CC)S(=O)(=O)c1ccc(NC(=O)Cn2c(=O)sc3ccccc32)cc1	·	·	·	0.72	1.3	-8	5.3	·	·	·
18	CCOc1ccc(C(=O)Nc2nc(C)c(C(=O)OC)s2)cc1	5	-8	-1.2	0.71	-6.3	-16	1.8	8	i	-2.1
19	Cc1cc(Cl)ccc1C(=O)C1CCCN(C(=O)CCN2CCCO2)C1 (centres undefined)	-14	-3	-1.3	0.7	-0.5	-8	3.4	-8	i	4.7
20	Cc1nn(CC(=O)Nc2nccs2)c(C)c1[N+](=O)[O-]	2	-6	-7.6	0.66	-0.2	-5	0.7	-3	i	8.0
21	CCCN(C(=O)/C=C/c1ccc(S(=O)(=O)N(CC)CC)cc1)C1CCS(=O)(=O)C1 (centres undefined)	2	5	1.6	0.71	0.2	·	4.6	-2	i	-2.4
22	CCN(CC)C(=O)c1ccc(CS(=O)(=O)c2ccc(OC)cc2)o1	9	-4	1.4	0.73	1.2	5	5.8	·	i	-12
23	Cc1ccccc1-c1nnc(-c2ccc(Br)cc2)o1	·	·	·	0.72	-9.2	3	5.3	1	·	·
24	Oc1ccccc1CN1CCN(C(c2ccccc2)c2ccccc2)CC1	-16	-29	-1.1	0.66	0.5	32	1.2	0	i	-1.2
25	COc1cccc(CNC(=O)CCC2CCCN(C(=O)c3ccc(F)c(Cl)c3)C2)c1 (centres undefined)	-6	-9	-0.5	0.72	2.6	3	3.0	·	i	-0.8
26	CC1CCN(C(=O)CCNC(=O)c2ccccc2Cl)CC1	-3	-6	-1.3	0.74	0.5	-22	0.8	-1	i	-1.1
27	COc1ccc(-c2noc(CCC(=O)N3CCN(c4cccc(C)c4)CC3)n2)cc1	5	14	2.2	0.69	·	·	-2.0	·	i	-0.8
28	COc1cc(C(=O)NCC(=O)NCCN2C(=O)S/C(=C\c3ccc4c(c3)OCO4)C2=O)cc(OC)c1OC	-1	2	-0.9	0.64	-0.9	-12	1.5	·	i	1.6
29	COc1ccccc1N1CCN(CC(O)COc2ccc(C)c(C)c2)CC1 (centres undefined)	-8	-10	0.4	0.68	-0.6	0	2.2	2	i	-19
30	CC(C)C1CC(C(F)(F)F)n2nc(C(=O)O)cc2N1 (centres undefined)	10	3	-1.1	0.71	-0.5	-7	4.7	-6	i	-2.0
31	O=C(NNC(=O)c1ccc(Br)s1)c1cccc(Cl)c1	4	8	-2.6	0.64	-0.1	·	1.0	-2	i	-2.1
32	CCOc1ccc2nc(SCC#N)c(C#N)cc2c1	·	·	·	0.68	-0.4	23	-7.1	20	·	·
33	COC(=O)c1c(NC(=O)c2ccc(OC(C)C)cc2)sc2c1CC(C)(C)NC2(C)C	7	-3	2.0	0.69	1.1	?	-385	·	i	4.2
34	COc1ccc(C2=NOC(C(=O)NCc3cccnc3)C2)cc1 (centres undefined)	10	8	2.1	0.6	0.2	-3	2.0	3	i	-0.1
35	Cc1cn(C(=O)c2cccc(Br)c2)c(C)n1	·	·	·	0.7	0.4	-7	-2.2	1	·	·
36	Cc1ccc(-c2nnc(CSc3nc(C(C)C)nc4sc(C)c(C)c34)o2)cc1	·	·	·	0.72	0.6	-4	2.2	-7	·	·
37	O=C(N/N=C/C(Cl)=C/c1ccc([N+](=O)[O-])cc1)C(=O)Nc1cccc(C(=O)O)c1	-2	1	11	·	-2.7	-10	·	-5	i	-10
38	CCN1C(=O)[C@H]2[C@@H](c3ccc(-c4cccc(Cl)c4)c(OC)c3)N3CCC[C@@]3(C(=O)OC)[C@H]2C1=O	-3	-2	7.8	·	-0.3	·	0.6	1	i	4.6
39	CCCn1c(N)c(C(=O)CSc2nnc3n2CCCCC3)c(=O)n(C)c1=O	2	5	-2.1	0.72	-0.8	·	2.7	-3	i	0.8
40	O=C(NCC1CCCO1)c1c(O)nc2sccn2c1=O (centres undefined)	6	16	0.7	0.71	0.1	-3	0.9	3	·	-2.1
41	O=C(CN(Cc1ccccc1)S(=O)(=O)c1ccccc1)N/N=C/c1ccccc1[N+](=O)[O-]	-19*	-9.6*	1.9*	·	0.2	21	·	8	i	3.0
42	COc1ccc(C(c2nnnn2C2CCCC2)N2CCC(C)CC2)c(OC)c1 (centres undefined)	·	·	·	0.71	-0.2	36	1.9	-5	·	·
43	CCOC(=O)C1=C(CC)Nc2ccccc2N=C1NC(=O)c1ccc(C)c(S(=O)(=O)N2CCOCC2)c1	-1	3	5.6	0.71	·	·	6.3	·	·	1.0
44	COc1ccccc1NC(=O)C1=C(C)NC(=O)NC1c1cccc(OC)c1OC (centres undefined)	·	·	·	0.7	0.1	-5	2.2	2	·	·
45	COc1cc(CN(C)c2ncnc3sccc23)ccc1OC(F)F	-9	-12	-1.4	0.64	0.8	-42	-0.6	14	i	?
46	COc1ccc(S(=O)(=O)N(C)CC(=O)Nc2ccc3c(c2)OCO3)cc1	·	·	·	0.68	-0.9	2	5.5	-4	·	·
47	COc1ccccc1C(=O)NCCC(=O)NCC1COc2ccccc2O1 (centres undefined)	1	2	-0.3	0.68	0.5	·	0.9	-3	i	-3.0
48	Cc1nnc(SCC(=O)NC(=O)NCCC(C)C)s1	10	12	0.0	0.7	-0.8	-4	0.1	4	·	-1.0
49	COc1ccccc1C1CCN(Cc2c(C)[nH]c3ccccc23)CC1	-2	-8	4.2	0.7	1.1	32	3.0	32	i	15
50	Nn1c(Cc2cccc3ccccc23)nnc1SCCOc1ccc(F)cc1	·	·	·	0.68	0.3	17	5.1	-11	·	·
51	CCCn1c(=O)c(C(=O)NCc2ccc3c(c2)OCO3)c(O)c2ccccc21	1	9	1.9	0.69	1.2	1	-2.4	·	i	-7.2
52	CC(/C=N/NC(=O)c1cccs1)=C\c1ccccc1	7	18	-0.6	·	-0.3	7	·	0	i	2.9
53	O=C(Cn1nc(-c2ccccc2)ccc1=O)NCc1ccc2c(c1)OCO2	4	2	0.6	0.71	-1.8	-7	0.4	-2	i	?

Reformatted field by field: part of the list above
48) Cc1nnc(SCC(=O)NC(=O)NCCC(C)C)s1
- Ecoli rRNA inh: 10
- Ecoli rRNA inh OD600: 12
- Ecoli rRNA inh RFP: 0.0
- Ecoli growth: 0.7
- Bfl-1 A1 inh: -0.8
- T cruzi repl: -4
- UCH37 DUB inh: 0.1
- Beta cell apopt: 4
- FGF22 binding: ·
- MLL AF4-AF9 inh: -1.0
49) COc1ccccc1C1CCN(Cc2c(C)[nH]c3ccccc23)CC1
- Ecoli rRNA inh: -2
- Ecoli rRNA inh OD600: -8
- Ecoli rRNA inh RFP: 4.2
- Ecoli growth: 0.7
- Bfl-1 A1 inh: 1.1
- T cruzi repl: 32
- UCH37 DUB inh: 3.0
- Beta cell apopt: 32
- FGF22 binding: i
- MLL AF4-AF9 inh: 15
50) Nn1c(Cc2cccc3ccccc23)nnc1SCCOc1ccc(F)cc1
- Ecoli rRNA inh: ·
- Ecoli rRNA inh OD600: ·
- Ecoli rRNA inh RFP: ·
- Ecoli growth: 0.68
- Bfl-1 A1 inh: 0.3
- T cruzi repl: 17
- UCH37 DUB inh: 5.1
- Beta cell apopt: -11
- FGF22 binding: ·
- MLL AF4-AF9 inh: ·
51) CCCn1c(=O)c(C(=O)NCc2ccc3c(c2)OCO3)c(O)c2ccccc21
- Ecoli rRNA inh: 1
- Ecoli rRNA inh OD600: 9
- Ecoli rRNA inh RFP: 1.9
- Ecoli growth: 0.69
- Bfl-1 A1 inh: 1.2
- T cruzi repl: 1
- UCH37 DUB inh: -2.4
- Beta cell apopt: ·
- FGF22 binding: i
- MLL AF4-AF9 inh: -7.2
